# VDR inhibitor – inhibitors of human vitamin D receptor. VDR-SRC2-3 peptide fluorescence polarization, 2 h. P11473. Potency, µM, for inactives: max response, negative = inhibition, most hits filed as inhibitors. actives 0.93% (n = 400,000); active = well fitted inhibition curve with a large enough effect; inconclusive = small, poorly fitted or top-dose-only effect, or another doubt; inactive = no such curve, though single readings can be large or run the other way; also: series mostly up to about 120 µM
# Target sequence (P11473 whole entry, looked up): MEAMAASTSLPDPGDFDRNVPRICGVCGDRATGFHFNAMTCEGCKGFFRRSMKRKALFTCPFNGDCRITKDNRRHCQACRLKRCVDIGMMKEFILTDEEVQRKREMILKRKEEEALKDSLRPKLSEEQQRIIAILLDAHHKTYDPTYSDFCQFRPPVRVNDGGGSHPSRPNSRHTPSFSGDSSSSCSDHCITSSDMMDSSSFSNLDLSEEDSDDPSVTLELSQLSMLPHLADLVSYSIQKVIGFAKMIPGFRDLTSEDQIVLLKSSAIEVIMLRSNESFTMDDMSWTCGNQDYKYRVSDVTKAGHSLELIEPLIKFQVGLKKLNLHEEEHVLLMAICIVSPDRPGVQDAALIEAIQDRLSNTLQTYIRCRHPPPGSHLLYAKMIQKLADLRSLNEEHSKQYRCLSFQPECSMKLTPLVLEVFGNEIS
#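 Measured by FP: displacement of SRC2-3 coactivator peptide from VDR by library compounds, following a two-hour ambient incubation.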
# An asterisk follows results filed as active; ? = inconclusive; & = joins results of further samples. % is scaled to controls: 0 for no effect and ±100 for the full control effect; potency is read from the fitted curve at half-maximal effect. A portion of the library; rates above refer to the full screens.
VDR inhibitor	SMILES
13%	COCc1cc(C)nc(OCC(=O)N/N=C/c2ccc(O)cc2)c1C#N
-11%	Cc1ccc(OCCSc2ncnc3nc[nH]c23)cc1
-17%&11%	COc1ccccc1CNS(=O)(=O)c1cc2c3c(c1)CCN3C(=O)CC2
-12%	Cc1ccc(-n2nc3c(c2NC(=O)c2ccc4c(c2)OCO4)CS(=O)(=O)C3)cc1C
18%	COc1ccccc1CN1CC(C(=O)NCC2CCCO2)CC1=O (stereo not drawn)
-14%	O=C(COC(=O)C1=COCCO1)Nc1cccc(S(=O)(=O)N2CCOCC2)c1
13%	O=C(NCc1cccc(CNC(=O)Nc2cccc(O)c2)c1)Nc1cccc(O)c1
-12%	CCOC(=O)CCCCCC(=O)Nc1ccc2c(c1)CC(=O)N([C@H](C)CO)C[C@H](C)[C@H](CN(C)S(=O)(=O)c1ccc(OC)cc1)O2
7%	O=C(N/N=C/c1cccs1)C1COc2ccccc2O1 (stereo not drawn)
0%	COc1ccc(N2C(=O)C(F)(F)C2c2ccc(C)cc2)cc1OC (stereo not drawn)
7%	O=C(NN1CCOCC1)c1ccc(F)cc1
-19%	Cc1ccc(S(=O)(=O)NCCC(=O)N2CC(C)OC(C)C2)cc1 (stereo not drawn)
6%	COc1ccc(C2(C(=O)NC(C)C)CCCC2)cc1OC
9%	CN(CC(=O)Nc1cccc(F)c1)CC(=O)Nc1cccc2ccccc12
5%	Cc1ccc(-c2ccnc3c(Cl)c(C)nn23)cc1
-7%	Cc1ccc(NC(=O)c2oc3ccc(S(=O)(=O)N4CCCCCC4)cc3c2C)c(C)c1
-4%	CCOc1ccc(S(=O)(=O)Nc2cccc(C(=O)NCC3CCCO3)c2)cc1 (stereo not drawn)
-21%	Cc1ccc(NC(=O)c2ccc3c(c2)OCCO3)cc1C
-7%	COc1ccc(C(C)=O)cc1CC(=O)Nc1cccc(S(=O)(=O)N2CCOCC2)c1
4%	C=CCN1C(=O)c2ccc(C(=O)N(C)CC(=O)Nc3ccc(Br)cc3C)cc2C1=O

# A few values from the entries so far:
# COc1ccc(C2(C(=O)NC(C)C)CCCC2)cc1OC @ VDR inhibitor = 6%
# CCOc1ccc(S(=O)(=O)Nc2cccc(C(=O)NCC3CCCO3)c2)cc1 (stereo not drawn) @ VDR inhibitor = -4%
# C=CCN1C(=O)c2ccc(C(=O)N(C)CC(=O)Nc3ccc(Br)cc3C)cc2C1=O @ VDR inhibitor = 4%
# Cc1ccc(-c2ccnc3c(Cl)c(C)nn23)cc1 @ VDR inhibitor = 5%
# COc1ccc(C(C)=O)cc1CC(=O)Nc1cccc(S(=O)(=O)N2CCOCC2)c1 @ VDR inhibitor = -7%

# Continuation:
VDR inhibitor	SMILES
-16%	O=C(NC(Cc1ccccc1)C(=O)O)/C(=C/c1ccccc1)NC(=O)c1cccc(Br)c1 (stereo not drawn)
6%	Cc1sc2ncnc(N3CCOCC3)c2c1C
6%	Cc1cc(C(=O)CSc2nnnn2-c2ccc(O)cc2)c(C)n1C
-1%	O=c1c(CCc2ccccc2)nc2cnc(N3CCNCC3)nc2n1Cc1cccs1
12%	CC(=O)Nc1ccc(S(=O)(=O)N2CCC(NC(=O)c3ccccc3)CC2)cc1
8%	CC(=O)N1CCc2c(sc3c2c(=O)n(CCc2ccccc2)c(=O)n3CC(=O)Nc2ccccc2F)C1
-7%	Cc1nc2nc(-c3ccccc3)[nH]n2c(=O)c1Cc1ccccc1
-2%	CCOC(=O)C1CCCN(S(=O)(=O)c2cc(C(=O)OC)n(C)c2)C1 (stereo not drawn)
3%	COc1cc(NC(=O)c2ccnc(N)c2)cc(C(=O)Nc2cccc(C(F)(F)F)c2)c1
4%	Cc1ccc(-c2noc(-c3nnn(CC(=O)Nc4cc(Cl)ccc4C)c3N)n2)cc1
-5%	CCCC(O)(CCN(C)C)c1ccc(OC)cc1 (stereo not drawn)
-15%	Cc1ccccc1CSCCNC(=O)CN(c1ccc2c(c1)OCO2)S(C)(=O)=O
-25%	COc1cccc2cc3c(=O)n(-c4ccccc4)nc-3oc12
-1%	O=C(N/N=C\c1ccc(Cl)cc1)c1sccc1-n1cccc1
2%	COc1ccc(NC2CCCN(C(=O)c3cccnc3)C2)cc1 (stereo not drawn)
-9%	O=C(O)COCc1nc2ccccc2[nH]1
-18%	CN(C)S(=O)(=O)c1ccc(Cl)c(NC(=O)COC(=O)CN2C(=O)C3CCCCC3C2=O)c1 (stereo not drawn)
-13%	COc1cccc(CC(=O)N[C@@H](CCSC)c2nc3ccccc3[nH]2)c1
3%&7%	O=C(c1cnc2c(c1)COc1ccc(Cl)cc1-2)c1ccccc1O
-8%	CC(C)NC(=O)Nc1ccc2c(c1)C(=O)N([C@H](C)CO)C[C@H](C)[C@@H](CN(C)S(C)(=O)=O)O2
-18%	O=C(CCN1C(=O)/C(=C/C=C/c2ccccc2)SC1=S)Nc1ccccn1
4%	COc1ccc(NC(=O)CN(C)C(=O)c2sc3ccccc3c2Cl)cc1
-14%	COc1ccc(C2CC(c3cccs3)=NN2C(=O)COC(=O)c2cncc(Br)c2)cc1OC (stereo not drawn)
-28%	CC(c1ccccc1)n1cc(C(=O)NCc2cccnc2)nn1 (stereo not drawn)
-3%	COc1ccc(NC(=O)NCc2ccc(Cl)cc2)cc1
-27%	Cc1ccc(NC(=O)CCC(=O)OCc2ccc(Br)cc2)cc1
?	COc1ccc(-c2[nH]ncc2CNCc2cc(C)n(C)n2)c(F)c1
3%	CCOC(=O)c1cc(CC)sc1NC(=O)CC1SC(N)=NC1=O (stereo not drawn)
-19%	COc1ccc(-c2nc(CN3CCC(C(=O)NCc4ccccc4)CC3)c(C)o2)cc1OC
-9%	OCc1ncccc1O

# A second format for part of the listing above.
SMILES: COc1ccc(NC(=O)CN(C)C(=O)c2sc3ccccc3c2Cl)cc1
  VDR inhibitor = 4%

SMILES: COc1ccc(C2CC(c3cccs3)=NN2C(=O)COC(=O)c2cncc(Br)c2)cc1OC (stereo not drawn)
  VDR inhibitor = -14%

# The listing continues.
VDR inhibitor	SMILES
5%	Cc1ccc(S(=O)(=O)/N=C2\CN(C)C(=O)N2C)cc1
9%	O=C(NCCOc1ccccc1)C(=O)NCC1CCCO1 (stereo not drawn)
9%	CCc1nn(CC(=O)NCc2ccccc2Cl)c(=O)c2cc3ccccc3n12
3%	O=[N+]([O-])c1cc(-c2nnc(-c3ccccc3)o2)ccc1Oc1ccc(Cl)cc1
-4%	COc1ccc(-c2nc3ncccn3c2Nc2ccc3c(c2)OCCO3)cc1
15%	COC(=O)C1=NN(N=O)C2(CC(=O)N(c3cc(C)cc(C)c3)C2=O)C1 (stereo not drawn)
-3%	O=S(=O)(NCc1ccccn1)c1cc(Cl)ccc1Cl
6%	CCN(CC)C(=O)CSc1nnc(-c2cccc(OC)c2)o1
4%	CC(C)OCCCNC(=O)c1c2c(nc3ccccc13)C(=O)N(C1CCCCC1)C2
-17%	O=C(O)c1ccc(NC(=O)C(c2ccccc2)c2ccccc2)cc1

# A second format for some results above.
mol | VDR inhibitor
Cc1ccc(S(=O)(=O)/N=C2\CN(C)C(=O)N2C)cc1 | 5%
O=C(NCCOc1ccccc1)C(=O)NCC1CCCO1 (stereo not drawn) | 9%
CCc1nn(CC(=O)NCc2ccccc2Cl)c(=O)c2cc3ccccc3n12 | 9%
O=[N+]([O-])c1cc(-c2nnc(-c3ccccc3)o2)ccc1Oc1ccc(Cl)cc1 | 3%
COc1ccc(-c2nc3ncccn3c2Nc2ccc3c(c2)OCCO3)cc1 | -4%

# The list goes on.
VDR inhibitor	SMILES
-6%	CN(C)CCNC(=O)c1onc(CSc2ccc(F)c(F)c2)c1C(=O)NCCN(C)C
-5%	CC(=O)Nc1nonc1NC(=O)CSc1ccccn1
-1%	CCCCN(CCCC)c1ncnc2c1cnn2-c1cccc(C)c1
?	Cc1cc(C)c2[nH]c(=O)c(CN(CC3CCCO3)C(=S)NCc3ccco3)cc2c1 (stereo not drawn)
3%	Cc1ccc(S(=O)(=O)NCCc2ccccc2)cc1
16%	CCC1C(=O)NCCN1C(=O)c1cccc(OC2CCN(S(=O)(=O)N(C)C)CC2)c1 (stereo not drawn)
-18%	CNC(=O)COc1ccc(S(=O)(=O)Nc2ccc(C)cc2)cc1
17%	Cn1cnnc1SCC(=O)NNC(=O)c1ccc([N+](=O)[O-])cc1
-8%	CCN(C(=O)COC(=O)/C=C/c1ccco1)C1CCCCC1
9%	COc1ccc(CCN2C(=O)c3oc4cc(C)cc(C)c4c(=O)c3C2c2ccc(F)cc2)cc1OC (stereo not drawn)
3%	CC[C@]12c3[nH]c4ccccc4c3CCN1C(=O)C(CC(=O)NC/C=C(\C)CCC=C(C)C)C[C@@H]2C(=O)N1CCN(C(=O)c2ccco2)CC1 (stereo partly drawn)
-10%	COc1ccccc1CN(C)C(C)C(=O)Nc1cccc(C(C)=O)c1 (stereo not drawn)
1%	O=C(Nc1ccn(Cc2ccccc2F)n1)c1ccc(COc2ccc(Cl)cc2Cl)o1
-1%	Cc1ccc(S(=O)(=O)N2CCC(C(=O)Nc3nnc(-c4ccco4)s3)CC2)cc1
-9%	CCOC(=O)COc1ccc(C2C(C(=O)OC)=C(C)NC3=C2C(=O)c2ccccc23)cc1Cl (stereo not drawn)
-13%	CCSc1ccccc1C(=O)Nc1ccc([N+](=O)[O-])cc1OC
-25%	O=C(c1ccc(NS(=O)(=O)c2ccc3[nH]c(=O)[nH]c3c2)cc1)N1CCCC(C(F)(F)F)C1 (stereo not drawn)
?	CCCCNC1=CC(=O)C(NCCCC)=CC1=O
19%	COc1cccc(/C=C2/SC(=S)N(CC(=O)NC3C=CS(=O)(=O)C3)C2=O)c1 (stereo not drawn)
-6%	CCOC(=O)N1CCN(S(=O)(=O)c2ccc(-n3cnnn3)cc2)CC1
?	CCOc1cc2c3c(c1)C(C)=CC(C)(C)N3C(=O)C2=O
6%	Nc1c(C(=O)N2CCOCC2)oc2ccccc12
-3%	Cc1cccc(NC(=O)c2ccc(N(Cc3ccccc3)S(C)(=O)=O)cc2)c1
-7%	Clc1ccc(OCCCCN2CCc3ccccc3C2)cc1
-8%	CC1Cc2ccccc2N1C(=O)CCn1cccn1 (stereo not drawn)
3%	Cc1cc(C)cc(N2C(=O)C3C4C=CC(C4)C3C2=O)c1 (stereo not drawn)
10%	CCCCNC(=O)NS(=O)(=O)c1ccc(CO)cc1
0%	N#Cc1ccsc1NC(=O)COC(=O)C1=NNC(=O)CC1
4%	Cc1ccc(C)c(S(=O)(=O)N2CCCC2CNC(=O)C(=O)NCCN2CCOCC2)c1 (stereo not drawn)
4%	CCOC(=O)C1CCN(c2nc3c(S(=O)(=O)c4ccc(Br)cc4)nnn3c3ccsc23)CC1
5%	CCc1nc(N2CCN(S(=O)(=O)c3ccc(Br)cc3)CC2)c2c(C)c(C)sc2n1
-8%	Cc1cc(NC(=O)c2ccccc2C)n(-c2cccc(F)c2)n1
19%	COc1ccc(N(C)C(=O)Cn2cc(S(=O)(=O)N3CCN(c4ccccc4F)CC3)c3ccccc3c2=O)c(OC)c1
-7%	O=C(COC(=O)CCc1c[nH]c(=O)[nH]1)Nc1cccc(Cl)c1
-3%	Cc1nc(Cc2nnc(SC(C)C(=O)N3c4ccccc4NC(=O)C3(C)C)o2)cs1 (stereo not drawn)
5%	Cc1ccc(N=C2NC(=O)S/C2=C\c2ccco2)cc1
10%	Cc1[nH]c2ccc(F)cc2c1CCN(Cc1ccncc1)C(=S)Nc1ccccc1
-5%	Cc1ccc(C)c(NC(=O)C2CCN(C(=O)c3cccs3)CC2)c1
-5%	O=C(CN1CCN(Cc2ccc(F)cc2Cl)C1=O)NCc1cccs1
-16%	Cc1ccc(NC(=O)CN(C)C(=O)CSc2nnc(C)s2)cc1
3%	CCCN1CCN(CCCNC(=O)c2ccc3c(c2)sc2nc(-c4ccc(OC)cc4)cn23)CC1
-6%	COC(=O)COc1ccc(-n2cnnn2)cc1
-4%	Cc1ccccc1-n1ncc(C(C)NC(=O)c2ccccc2)c1C (stereo not drawn)
-2%	O=C1CCC[C@@H]2C[C@@]3(C[C@@H]4CCN1[C@H]24)Nc1cc(Cl)c(Cl)cc1NC3=NCc1ccccc1
-30%&-6%	OC[C@@H]1[C@@H](c2ccccc2)C(c2cccc(Cl)c2)=NN1c1ccccc1
-12%	Cc1ccccc1-c1noc(CSc2nc3ccccc3[nH]2)n1
-4%	COc1ccc(C(CNC(=O)c2ccc(OCc3ccccc3)cc2)N2CCOCC2)cc1 (stereo not drawn)
-11%	O=C(NCc1ccccc1)c1ccc2c(c1)N(Cc1ccccc1F)C(=O)c1ccccc1S2=O (stereo not drawn)
12%	COc1ccccc1NC(=O)Cn1cc(C(=O)C(=O)N2CCOCC2)c2ccccc21
5%	COc1ccc(-c2nc3sc(CCNC(=O)C(=O)Nc4ccc(C)c(F)c4)c(C)n3n2)cc1

# (next part)
VDR inhibitor	SMILES
-7%	O=[N+]([O-])c1ccc(C2=Nn3cnnc3SC2)cc1
-10%	O=C(c1ccc(Cl)c(S(=O)(=O)NCc2ccco2)c1)N1CCN(c2ccccc2F)CC1
-22%	CN(C)C(=O)NC(Nc1cccc([N+](=O)[O-])c1)C(Cl)(Cl)Cl (stereo not drawn)
-2%	Fc1ccc(CN2CCN(c3ncccn3)CC2)c(F)c1
-4%	OCCNc1ncnc2c1nnn2Cc1ccccc1
-10%	O=[N+]([O-])c1ccc(N/N=C/C=C/c2ccco2)cc1
2%	Cc1c(OCc2nn[nH]n2)ccc2c3c(c(=O)oc12)CCCC3
-3%	COC(=O)C1CCN(C(=O)COc2ccc(N(C)S(=O)(=O)c3ccc(C)cc3)cc2)CC1
1%	Cc1nn(CCOc2ccccc2)c(=O)n1-c1cccc(F)c1
-14%	COc1ccc(S(=O)(=O)N2CCN(C(=O)c3cc(-c4ccccc4OC)n[nH]3)CC2)cc1
-11%	Cn1cc(C[C@H](NC(=O)OC(C)(C)C)C(=O)N[C@H](CO)Cc2ccccc2)c2ccccc21
9%	CCc1ccccc1N1C(=O)N(Cc2cccc(Cl)c2)c2ccccc2S1(=O)=O
-7%	CC(C)CCC1(CCO)C(=O)N=C(N)NC1=O (stereo not drawn)

# Assay outcomes deposited in PubChem BioAssay by National Center for Advancing Translational Sciences (NCATS).
